Anaer choline gr: blocks anaerobic gram-negative growth on choline. actives 0.2% (n = 55,000). Gram-negative bacterium anaerobic choline minimal medium, absorbance growth; active compounds read low; many inactives read as strong as hits in the columns shown. calls only;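 active = growth z-score on choline under -2 at 7 or 20 h with little or no fall on glycerol, limits in tiers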;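 note: stock transfer was 300 nL into about 50 µL; the organism is E. coli; final concentration not given here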
Anaer choline gr early: recorded beside Anaer choline gr, whose call it bears; z-score; measured here: choline growth z-score, timepoint 1;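 score of optical density at 7 h as mean of two plates; lower means less growth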
An asterisk follows results filed as active; i = inactive; + = active, no number; & = joins results of further samples. A portion of the library; count on the stated rates, not on these rows.

Below each compound: Anaer choline gr	Anaer choline gr early
Cc1cc2nc(CSc3ccccc3NC(=O)Nc3ccccc3Cl)cc(=O)n2o1
 : i	-1.2
O=C(Cn1c2ccccc2c2ncn(Cc3nc(C4CC4)no3)c(=O)c21)NC1CCCCC1
 : i	0.4
COc1ccc(CN2CCCC2c2cc(C(C)C)no2)c(O)c1 (stereo unspecified)
 : i	-0.37
COc1ccccc1NC(=O)N1CCCN(c2nc3cccnc3s2)CC1
 : i	0.81
Cc1nn2c(C(F)(F)F)cc(-c3cccnc3)nc2c1-c1ccc(Cl)cc1
 : i	0.83
O=C(NCc1ccccn1)c1ccc(CSc2nc3cccnc3n2Cc2ccccc2)cc1
 : i	1.1
CC(C)n1c(N2CCCN(C(=O)C3CCC(=O)N3)CC2)cc(=O)n(C(C)C)c1=O (stereo unspecified)
 : i	0.11
CCOC(=O)c1[nH]c2ccccc2c1NC(=O)Cc1ccc(OC)cc1
 : i	0.35
O=C(NC1CCCc2ccccc21)C1CCCN(c2ccnc(-c3ccccc3)n2)C1 (stereo unspecified)
 : i	-2.2
Cc1cccc(Cn2nc3c(S(=O)(=O)N4CCCC4)cccn3c2=O)c1
 : i	-1.1
COc1ccc(OC)c(NC(=O)C2CCN(S(=O)(=O)c3cc(-c4noc(C)n4)sc3C)CC2)c1
 : i	-0.24
Cc1ccc2cc3c(nc2c1)N(S(=O)(=O)c1ccc(Cl)cc1)CC3
 : i	-2.1
O=C(c1ccccc1Br)N1CCC2(CC1)Nc1ccccc1-n1cccc12
 : i	-0.69
CCn1c(CN(c2ccc(F)cc2)S(C)(=O)=O)nnc1SCC(N)=O
 : i	-0.37
CCOC(=O)c1ccccc1NC(=O)CSc1nc2c(=O)n(C)c(=O)n(C)c2n1C
 : i	0.32

4 of the compounds above, with each value named.
COc1ccc(OC)c(NC(=O)C2CCN(S(=O)(=O)c3cc(-c4noc(C)n4)sc3C)CC2)c1
  Anaer choline gr: i
  Anaer choline gr early: -0.24
Cc1cc2nc(CSc3ccccc3NC(=O)Nc3ccccc3Cl)cc(=O)n2o1
  Anaer choline gr: i
  Anaer choline gr early: -1.2
CCOC(=O)c1ccccc1NC(=O)CSc1nc2c(=O)n(C)c(=O)n(C)c2n1C
  Anaer choline gr: i
  Anaer choline gr early: 0.32
COc1ccccc1NC(=O)N1CCCN(c2nc3cccnc3s2)CC1
  Anaer choline gr: i
  Anaer choline gr early: 0.81

(next part)
Below each compound: Anaer choline gr	Anaer choline gr early
CC(C)c1ccc(C(=O)Nc2nc3c(s2)CN(S(=O)(=O)c2ccccc2)CC3)cc1
 : i	-0.15
CCCCC/C=C\C[C@@H](O)/C=C/C=C/C=C\[C@@H](O)CCCC(=O)O
 : i	0.21
CCCCC[C@H](O)/C=C/[C@H]1[C@H](O)CC(=O)[C@@H]1C/C=C\CCCC(=O)O
 : i	0.06&0.3&0.58&0.41
Cc1cc(Sc2ccc(NC(=O)Nc3ccc(Cl)cc3)cc2)n2ncnc2n1
 : i	-0.19
CC1(C)S[C@@H]2[C@H](NC(=O)COc3ccccc3)C(=O)N2C1C(=O)O (stereo partly specified) (tested in a mixture with another compound)
 : i	0.64
CCc1nc2sc(C(C)C)nn2c1S(=O)(=O)N1CCCCC1
 : i	0.32
CCCCC[C@H](O)/C=C/[C@@H]1[C@H]2C/C(=C/CCCC(=O)O)C[C@H]2C[C@H]1O
 : i	-0.28
CC1CCN(C(=O)CSc2c3c(nc4ccc(Cl)cc24)CCCC3)CC1
 : i	0.21
Cn1c(=O)n(C)c2cc(N3CCOCC3)c(NS(=O)(=O)c3ccc(C(C)(C)C)cc3)cc21
 : i	-0.71
COC(=O)CNC(=O)N1CCCC1c1ccc(Cl)cc1 (stereo unspecified)
 : i	-0.15
CC(C)(S)C(N)C(=O)O (stereo unspecified)
 : i	0.17
CCOC(=O)COc1ccc(F)cc1C(=O)c1ccn2nc(-c3ccc(F)cc3)cc2n1
 : i	0.36
C=CCn1c(=O)c(=O)n(Cc2ccc(C(=O)O)cc2)c2ccccc21
 : i	-1.9
Cc1sc2nc3c4ccccc4c(N4CCN(CCO)CC4)nn3c(=O)c2c1C
 : i	-1.8
Cc1ccc2cc3c(nc2c1)N(S(=O)(=O)c1ccc(F)cc1)CC3
 : i	-2

Sorted by molecular weight (highest first): some entries from above.
Below each compound: Anaer choline gr	Anaer choline gr early
CC1CCN(C(=O)CSc2c3c(nc4ccc(Cl)cc24)CCCC3)CC1
 : i	0.21
CCc1nc2sc(C(C)C)nn2c1S(=O)(=O)N1CCCCC1
 : i	0.32
COC(=O)CNC(=O)N1CCCC1c1ccc(Cl)cc1 (stereo unspecified)
 : i	-0.15

Following part
Below each compound: Anaer choline gr	Anaer choline gr early
O=C(NCc1c(-c2ccc(F)cc2)nc2n1CCS2)c1ccc(F)cc1F
 : i	-1
Cc1ccc2c(c1)OC=CC(C(=O)NCc1ccccc1Cl)=C2
 : i	0.95
Fc1ccc(-c2csc(-c3nc(-c4ccc(Br)cc4)cs3)n2)cc1
 : i	0.68
Cc1cc(-c2c(-c3ccc4ccccc4c3)[nH]c3c2c(=O)n(C)c(=O)n3C)c(C)s1
 : i	0.91
CCOC(=O)c1[nH]c(C)c(CCC(=O)Nc2cc(C)on2)c1C
 : i	-1
COc1ccccc1NC(=O)CN(C)S(=O)(=O)c1cc2c(cc1C)NC(=O)CO2
 : i	-0.17
CCc1nnc(-c2cc(NC(=O)C3CCN(C(C)=O)CC3)c(C)s2)o1
 : i	0.43
Cc1ccc(-c2nnc(-c3cccc(S(N)(=O)=O)c3)o2)cc1
 : i	0.96
Cc1ccc(CNS(=O)(=O)c2c(C)[nH]c(-c3nnc(C4CCC4)o3)c2C)o1
 : i	0.79
CC(C)c1cc(C2CCCN2Cc2ccc(F)cc2)no1 (stereo unspecified)
 : i	-0.15
COc1ccc(Cl)cc1NCc1nc2nc3c(c(=O)n2[nH]1)CCC3
 : i	-0.17
Cc1nc(C)c(C(=O)Nc2ccccc2F)s1
 : i	-0.03
Cc1oc2ncnc(N3CCC(C(=O)NCc4cccc(Cl)c4)CC3)c2c1C
 : i	-0.46
O=C(NCc1cccc(Br)c1)c1ccc(N2C(=O)Cn3c(cc4sccc43)C2=O)cc1
 : i	0.44
N#CC1=CN(c2ccc3c(c2)CCC3)c2cc(F)ccc2S1(=O)=O
 : i	0.14

Next entries follow.
Below each compound: Anaer choline gr	Anaer choline gr early
COc1cc(OC)c(-n2nnc(-c3nc(-c4ccccc4)no3)c2C)cc1Cl
 : i	0.9
Cc1c(C)n(-c2ccccc2)c2nc(C(=O)Nc3cccc(Cl)c3)nc(N3CCCC3)c12
 : i	-0.48
CCCNC(=O)C1CCCN(S(=O)(=O)c2cc(-c3noc(C4CCCC4)n3)cs2)C1 (stereo unspecified)
 : i	0.81
CCCc1c(-c2ccc(O)cc2)nn(-c2ccc(O)cc2)c1-c1ccc(O)cc1
 : i	-1.2&0.18
O=C(O)Cc1cc(I)c(Oc2ccc(O)c(I)c2)c(I)c1
 : i	0.49&0.96&-0.19
Cc1ccc(CC2C(=O)Nc3ccc(Br)cc32)cc1 (stereo unspecified)
 : i	-0.04
CCc1nc(-c2cc(S(=O)(=O)N3CCN(C)CC3)c(C)s2)no1
 : i	-0.45
Cc1cccc(CN2CCCn3nc(C(=O)NC(C)c4ccc5c(c4)OCCO5)cc3C2=O)c1 (stereo unspecified)
 : i	-0.83
O=c1c(-c2nc(-c3ccc4c(c3)OCO4)no2)c[nH]c2ccccc12
 : i	-0.72
COc1cc(NC(=O)c2cccc(Nc3ccc(-c4cccc(C)c4)nn3)c2)cc(OC)c1
 : i	2.4
COC(=O)c1ccccc1NC(=O)NCc1ccnc(N2CCCCC2)c1
 : i	0.08
CN(C)CCCN(C(=O)c1sc2ccccc2c1Cl)c1nc2ccc(F)cc2s1
 : i	0.27
CCCOc1ccc(-c2noc(Cc3nc(-c4ccc(OCC)cc4)cs3)n2)cc1
 : i	0.58
Cc1nc(CN2C(=O)COc3cc(S(=O)(=O)N4CCCCC4)c(Cl)cc32)no1
 : i	-0.45
O=C(NCc1ccc2c(c1)OCO2)c1nc2nc(-c3ccc(F)cc3)cc(C(F)(F)F)n2n1
 : i	-0.71

Next part:
Below each compound: Anaer choline gr	Anaer choline gr early
COC(=O)Nc1nc2ccc(C(=O)c3ccc(F)cc3)cc2[nH]1
 : i	0.77&0.57&-0.05
COc1ccc(-c2ccc(OCCNC(=O)C3c4ccccc4Oc4ccccc43)nn2)cc1
 : i	0.47
COc1ccc(CCN(C)CCCN2CCc3cc(OC)c(OC)cc3CC2=O)cc1OC
 : i	0.57
CCC(C(=O)N(CC)CC)N1CCN(Cc2ccc(F)cc2)C(=O)C1=O (stereo unspecified)
 : i	0.66
COc1ccc2cc(C(=O)O)[nH]c2c1
 : i	0.65
COc1ccc(-c2nn3c(NCCc4ccccc4)cc(C)nc3c2C)cc1OC
 : i	0.45
CCCC(=O)Nc1ncnc2c1ncn2[C@@H]1O[C@@H]2OP(=O)(O)OC[C@H]2[C@H]1OC(=O)CCC
 : i	0.53
Cn1c(=O)n(CCC(=O)N2CCCC2)c(=O)c2cc(S(=O)(=O)NC3CCCCC3)ccc21
 : i	-0.84
O=S(=O)(c1ccc2nncn2c1)N(Cc1cc(F)cc(F)c1)c1cc(F)cc(F)c1
 : i	-1.8
CCc1ccc(-c2csc(Nc3ccccn3)n2)cc1
 : i	0.25
C=Cc1ccc(Cn2nc3n(Cc4ccccc4)c(=O)c4ccccc4n3c2=O)cc1
 : i	0.46
Cc1nn(-c2ccc(Cl)cc2)c(C)c1S(=O)(=O)N1CCN(c2ccccn2)CC1
 : i	0.06
Cc1sc2cc(C(=O)N3CCC(N4CCCCC4)CC3)[nH]c2c1CN1CCCCC1
 : +	-5.2*
O=C(NCc1ccc(F)cc1)c1ccc(NC(=O)N2CC3CCCN3c3ccccc32)cc1 (stereo unspecified)
 : i	0.03
CC(C)n1cnc(S(=O)(=O)N2CCCC(C(=O)N3CCN(c4ccc(Cl)cc4)CC3)C2)c1 (stereo unspecified)
 : i	0.02

(continued)
| structure | Anaer choline gr | Anaer choline gr early |
| --- | --- | --- |
| Cc1ccc(Nc2cc(-n3nc(C)cc3C)ncn2)cc1 | i | -0.85 |
| O=C(O)/C=C1\CCCc2ccccc2C1O (stereo unspecified) | i | 0.53 |
| Cc1c(C)n(-c2ccccc2)c2ncn(CCC(=O)NCCC(C)C)c(=O)c12 | i | -0.42 |
| Cc1ccc(-n2nc(C)c3c(C)c(CCC(=O)NCCc4c[nH]c5ccccc45)c(C)nc32)cc1C | i | 0.43 |
| Cc1nc(-n2cccc2)sc1C(=O)NCC(C)c1ccccc1 (stereo unspecified) | i | -0.36 |
| O=C(O)c1cccnc1C(=O)O | i | 0.48&0.66 |
| COc1cccc(CNC(=O)C2CCCN2S(=O)(=O)c2ccc3c(c2)C(C)(C)C(=O)N3C)c1 (stereo unspecified) | i | -1.3 |
| N#CCSc1nc(=O)n(C2CCCC2)c2c1CCC2 | i | 0.39 |
| CSc1cccc(NC(=NCc2ccncc2)NC(=O)c2ccc(CN3CCOCC3)cc2)c1 | i | -1.8 |
| O=C(c1ccccc1)N1CCN(C(=O)c2cc3cc(Br)ccc3[nH]2)CC1 | i | 0.68 |
| CCc1ccc(S(=O)(=O)c2cnc(N3CCN(c4ccc(OC)cc4)CC3)nc2N)cc1 | i | -1.6 |
| CCn1nc(-n2cnnc2)c(NS(=O)(=O)c2ccc(Cl)cc2)c1C | i | -2.3 |
| CC1CCN(C(=O)C2CCN(c3cncnc3N(C)C)CC2)CC1 | i | 1.5 |
| CC(=O)N1N=C(c2ccc3c(c2)OCO3)OC1c1ccc(F)cc1 (stereo unspecified) | i | -1 |
| CCc1ccc(C2=C(C)C(N3CCCN(C(=O)C(C)(C)CC)CC3)=NS2(=O)=O)cc1 | i | 0.07 |
| Cc1nc(-c2ccc(N3CCN(C(=O)CCc4c[nH]c5ccccc45)CC3)cc2)no1 | i | 0.97 |
| Clc1ccc(-c2csc3ncnc(Nc4ccc5c(c4)OCCO5)c23)cc1 | i | 0.32 |
| CCc1ccc(CNc2ncc3nc(-c4ccccc4)oc3n2)cc1 | i | -0.03 |
| CCNC(=O)N1CCCC1c1cc(C(C)C)no1 (stereo unspecified) | i | 0.5 |
| Cc1nn(-c2ccccc2)cc1-c1noc(C(=O)NCCCc2ccccc2)n1 | i | 1.4 |
| COc1ccc(NS(=O)(=O)c2ccc3c(c2)CCCC(=O)N3)cc1 | i | -1 |
| CN1CCc2nc(NC(=O)c3ccc(F)cc3)sc2C1 | i | -2 |
| CS(=O)(=O)Nc1cc(C(=O)O)ccc1N1CCN(Cc2ccc3c(c2)OCO3)CC1 | i | -1.1 |
| Cc1nn(-c2cccc(F)c2)c2sc(C(=O)Oc3ccc(F)cc3)cc12 | i | 0.43 |
| CCn1c(=O)n(CC)c2cc(NC(=O)CSc3nnc(-c4cc5ccccc5o4)n3C)ccc21 | i | 0.3 |

Continuation.
| structure | Anaer choline gr | Anaer choline gr early |
| --- | --- | --- |
| CCOc1ccccc1C1Nc2ccccc2-n2cc3c(=O)n(C)c(=O)n(C)c3c21 (stereo unspecified) | i | 0.1 |
| Cc1ccc(Cl)cc1N1CCN(CCCNC(=O)c2c(-c3ccncc3)noc2C)CC1 | i | -0.44 |
| COc1cccc(NC(=O)C2CCN(c3c(-n4c(C)ccc4C)c(C)nn3-c3ccccc3)CC2)c1 | i | 0.32 |
| Cc1cc(C)c2c(-n3cccc3)nn(CC(=O)NCc3cccc(Cl)c3)c2n1 | i | 1.1 |
| Fc1ccccc1-c1noc(NC2CCCC2)n1 | i | -1 |
| Cc1ccccc1-n1nnnc1C1(N)CCCC1 | i | -1.1 |
| O=C1COc2ccc(S(=O)(=O)Nc3cc(F)ccc3F)cc2N1Cc1noc(C2CCC2)n1 | i | -0.6 |
| Cc1cc(N2CCC(C)CC2)nc2ccc(NC(=O)c3cccnc3)cc12 | i | 0.36 |
| O=C(NCC1CCCO1)c1nnc(C(=O)Nc2ccc(F)cc2)s1 (stereo unspecified) | i | 0.8 |
| COc1ccc(C2Nc3c(C)cc(C)cc3[C@H]3OCCC[C@@H]23)cc1 (stereo partly specified) | i | 0.01 |
| Cc1cc(C)cc(C(=O)N(C)[C@H](Cc2ccc(-c3ccccc3)cc2)C(=O)N[C@@H](Cc2c[nH]c3ccccc23)C(=O)O)c1 | i | 1.1 |
